Compound activity (PubChem BioAssay)
gsp antagonist – antagonists of gsp mutant (McCune-Albright syndrome). gsp-mutant cells, cAMP HTRF, 30 min; control for the full effect not named in the record. Potency, µM (top dose mostly 76.9 µM), inactives show at the top dose activity change, negative = inhibition, hits mostly inhibitors. 340,000 tested, 0.4% active; active = falling curve of any shape with a large fitted effect; inconclusive = falling curve, mostly with a smaller effect; inactive = flat or rising curve; cell line not stated here;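 also: intracellular cAMP measured with PDE inhibitor Ro 20-1724 present during compound exposure; potency is read from the fitted curve at half-maximal effect; % is scaled to controls: 0 for no effect and ±100 for the full control effect; nearly all actives have a fitted effect of over 65% in size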
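Measurement of cellular cAMP by homogeneous time-resolved fluorescence following a 30 min compound exposure at 37C. The PDE inhibitor […] was present throughout; the assay buffer was DPBS with 0.05% BSA and 0.005% Tween 20.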
Menin MLL FP FL – displaces fluorescein MLL peptide from human menin; Fluorescence polarization, fluorescein-MLL peptide displacement from menin; AID 1766; 290,000 tested, under 10 active; FP activity change, % at 61.4 µM; inconclusive = falling polarisation curve, or a change in total fluorescence; inactive = total fluorescence flat and polarisation flat or rising; no compound was filed as active; the % refers to the polarisation; negative = inhibition;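 also: % of control where 0% means no effect; inhibitors lower the polarisation; unlabelled MLL peptide was the positive control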
ClpP mod – qHTS Assay for Activators of ClpP. ATP-dependent Clp protease proteolytic subunit (Bacillus subtilis (strain 168)), P80244. purified B. subtilis ClpP, FRET peptide cleavage, 20 min. Potency, µM (top dose mostly 57.5 µM), for inactives: at the top dose activity change, negative = active. 340,000 tested, 1.9% active. AID 651965, 2013; active = well fitted falling curve with a large enough effect; inconclusive = small, poorly fitted or top-dose-only effect; inactive = no such curve, though single readings can be large or run the other way; also: potency is read from the fitted curve at half-maximal effect; the source files actives as falling curves though it sought activators and does not explain the sign; nearly all actives have a fitted effect of over 65% in size; many hits overshoot -100%
Target sequence (P80244 whole entry, looked up): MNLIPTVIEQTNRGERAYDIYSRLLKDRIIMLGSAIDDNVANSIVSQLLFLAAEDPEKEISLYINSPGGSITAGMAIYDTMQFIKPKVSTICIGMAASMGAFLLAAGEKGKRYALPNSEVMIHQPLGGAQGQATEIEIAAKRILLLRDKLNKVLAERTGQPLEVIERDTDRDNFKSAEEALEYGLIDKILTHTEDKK
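FRET quenching reversal measured ClpP activation: 10 microg/mL B. subtilis ClpP at pH 8 with the FRET-FV decapeptide, read at 430 nm after 320 nm excitation. The 20-min minus 0-min signal was scaled between DMSO/no-enzyme wells and ADEP (5.8 microM final).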
Sfp PPTase inh – blocks B. subtilis Sfp PPTase activity; Q9F4F7; Biochemical Sfp PPTase activity, qHTS; Potency, µM, inactives show max response, negative = inhibition, hits mostly inhibitors; 310,000 tested, 3.5% active; AID 1490; active = well fitted inhibition curve with a large enough effect; inconclusive = small, poorly fitted or top-dose-only effect, or another doubt; inactive = no such curve, though single readings can be large or run the other way;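 also: the enzyme is Sfp with the accession as filed and its product quenches rhodamine fluorescence; potency is read from the fitted curve at half-maximal effect; 0% = enzyme reaction without inhibitor and -100% = no enzyme wells; top concentration of the series not given in the record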
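With Hepes-Na pH 7.6 buffer containing 10 mM MgCl2, Sfp (15 nM) modified BHQ-2-YbbR (12.5 uM) using rhodamine-CoA (5 uM). Two reads 30 minutes apart at 525/598 nm yielded each well's rate.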
D2 agonist – agonists of human D2 dopamine receptor (beta-arrestin); AID 624465; DiscoveRx PathHunter D2 beta-arrestin, luminescence, 90 min; 100% = 57 uM dopamine signal; 360,000 tested, 0.084% active; activation, % (test concentration not listed); P14416; in the data active = activation above about 40%; inconclusive = about 15% to 40%; inactive = below about 15%; also: compound concentration not given in the record; the text of the record calls up to 30% inactive
Target sequence (P14416 whole entry, looked up): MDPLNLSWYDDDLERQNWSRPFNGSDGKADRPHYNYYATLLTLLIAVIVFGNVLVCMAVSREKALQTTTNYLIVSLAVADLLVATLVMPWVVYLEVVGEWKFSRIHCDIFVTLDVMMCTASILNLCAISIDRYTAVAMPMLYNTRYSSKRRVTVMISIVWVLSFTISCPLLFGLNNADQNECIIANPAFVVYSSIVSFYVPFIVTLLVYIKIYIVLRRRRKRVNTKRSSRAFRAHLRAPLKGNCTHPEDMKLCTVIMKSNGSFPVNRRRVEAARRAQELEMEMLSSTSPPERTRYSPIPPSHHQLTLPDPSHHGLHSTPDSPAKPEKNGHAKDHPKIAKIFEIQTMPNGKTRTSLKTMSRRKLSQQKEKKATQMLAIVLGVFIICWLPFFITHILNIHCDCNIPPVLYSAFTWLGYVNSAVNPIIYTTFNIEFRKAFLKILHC
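Agonist mode: compounds alone added to overnight-plated D2 PathHunter cells for 90 min at 37 C, with 57 uM final dopamine (EC100) defining full response. Beta-arrestin recruitment detected by chemiluminescent reagent, read after 1 h at ambient temperature.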
gsp ag – activates gsp, the McCune-Albright syndrome mutation; Potency, µM (highest dose often 76.9 µM), inactives show top-dose activation (cAMP increase), most hits filed as activators; gsp mutant cells, cAMP HTRF, 30 min; control for the full effect not named in the record; 340,000 tested, 0.13% active; active = well fitted activation curve with a large enough effect; inconclusive = small, poorly fitted or top-dose-only effect, or another doubt; inactive = no such curve, though single readings can be large or run the other way; cell line not stated here;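 also: phosphodiesterase inhibitor Ro 20-1724 added with compounds to block cAMP breakdown; potency is read from the fitted curve at half-maximal effect; nearly all actives have a fitted effect of over 60% in size; about a fifth of the inactives were tested at one dose only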
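Cells stably selected in G418 were plated at 2000/well, grown 16-24 hr, then given compounds in DMSO with the PDE inhibitor […] (300 uM solution added) for 30 min at 37C; cAMP was read by HTRF.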
PINK1 modulator – modulators of PINK1 expression | Potency, µM (doses to about 76.6 µM), for inactives: at the highest dose activation (PINK1 increase), actives largely listed as activators | PINK1 immunofluorescence, high-content cytometry, 24 h | 410,000 tested, 0.2% active; active = well fitted activation curve with a large enough effect; inconclusive = small, poorly fitted or top-dose-only effect; inactive = flat fitted curve, though single readings scatter; cell line not stated here;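 also: potency is read from the fitted curve at half-maximal effect; % of control where 0% means no effect; nearly all actives have a fitted effect of over 65% in size; a mitochondrial uncoupler was the plate control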
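A stable cell line was treated with compounds at 5 concentrations for 24 hours, with CCCP as control. PINK1 levels and mitochondrial localization were measured by immunofluorescence with mitochondrial, cell and nuclear markers after fixation, read by laser-scanning cytometry.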
* hit, by the source's call; ? = inconclusive; / = not tested or not shown; & = joins results of further samples; [ ] = another dose, or the depositor's remark.

SMILES	gsp antagonist	Menin MLL FP FL	ClpP mod	Sfp PPTase inh	D2 agonist	gsp ag	PINK1 modulator
NC(=O)c1ccc(Oc2ccc(Cl)cc2)c([N+](=O)[O-])c1	1%	1.0	-0.7%	15%	-3.0	1%	-0.1%
Cc1ccccc1CN(C)c1ccc(S(=O)(=O)N2CCN(C)CC2)cn1	5%	/	-3.5%	/	-3.1	30%	0.6%
CCOc1ccc2[nH]c(=O)c(CN(CCc3ccccc3)C(=O)N3CCOCC3)cc2c1	11%	4.6	3.5%	-6%	-3.9	-5%	3.2%
O=[N+]([O-])c1ccc(Sc2cccc3cccnc23)cc1	-8%	3.9	0.7%	1%	-1.8	-18%	2.7%[38.3 µM]
Cc1c(C(=O)NCCN2CCOCC2)oc2ccccc12	15%	4.0	-1.3%	9%	-1.9	-18%	-0.4%
O=C(/C=C/c1ccccc1Cl)N(c1ccccn1)C1CCCCC1	5%	-0.4	4.1%	-6%	?	-32%[inhibitor]	-0.3%
COc1ccc(S(=O)(=O)N2CCN=C2SCc2cccc(F)c2)cc1	5%	/	-0.1%	11%	-1.3	-7%	-0.5%
C[C@H]1CN([C@@H](C)CO)C(=O)CCCn2nncc2CO[C@H]1CN(C)C(=O)c1ccncc1	/	/	1.2%	/	-2.4	26%	1.6%
CCc1ccc(NC(=O)CCN2C(=O)c3cccnc3C2=O)cc1	-3%	8.3	0.0%	1%	-0.5	-27%	-2.0%
O=C(CNS(=O)(=O)c1ccc(Br)cc1)NC1CCCC1	-13%	3.0	1.4%	7%	-6.2	20%	-0.4%
CCS(=O)(=O)N1Cc2ccccc2CC1C(=O)N(C)CC(=O)Nc1ccc(F)c(F)c1F (centres undefined)	-8%	/	-0.5%	/	-1.9	1%	0.9%
O=C(O)c1cc(N/C(=N\S(=O)(=O)c2ccc(F)cc2)c2ccccc2)ccc1O	-4%	/	1.0%	/	-7.8	?	-1.5%
S=C(NCCN1CCOCC1)N1CCN(c2cccc(Cl)c2)CC1	5%	27	-0.9%	?	1.6	-4%[15.4 µM]	-0.1%
CCc1[nH]nc2c1C(c1cccc(OC(=O)N3CCOCC3)c1)C(C#N)=C(N)O2 (centres undefined)	-11%	0.5	-1.0%	7%	-3.3	-4%	/
O=C(COC(=O)c1ccc([N+](=O)[O-])cc1)Nc1cccnc1Cl	7%	/	-19%	/	10	25%[15.4 µM]	0.8%
Nn1c(Cc2ccccc2)nc2cc(Cl)ccc2c1=O	-4%	0.0	0.2%	2%	-3.9	?	7.8%
Cc1ccc(N(CC(=O)NCc2ccc(F)cc2)C(=O)c2snc(C(N)=O)c2N)cc1C	-4%	-1.4	/	3%	-1.3	-1%[15.4 µM]	7.3%
O=[N+]([O-])c1ccc(NCc2ccccc2N2CCC(CO)CC2)nc1	0%	-1.6	0.9%	6%	-0.6	-26%	0.4%
COc1ccc(S(=O)(=O)N(C)c2ccc(C(=O)Nc3ccccc3C(=O)N3CCOCC3)cc2)cc1	-6%	/	-0.7%	9%	-3.0	-2%	1.5%
O=C(COC(=O)Cc1c(Cl)cccc1Cl)Nc1ccc2[nH]c(=O)[nH]c2c1	8%	/	-1.6%	/	-1.1	24%[15.4 µM]	0.6%
CCOC(=O)c1oc2ccc(S(=O)(=O)n3nc(-c4ccc(Cl)cc4)cc3N)cc2c1C	-5%	-1.5	-0.5%	7%	-5.4	-6%	6.8%
COc1ccc(OC)c(S(=O)(=O)Nc2c(NC3CCCCC3)c3ccccc3oc2=O)c1	-25%	/	-4.3%	10%	-2.6	56%	1.4%
CCC(Sc1nc2cc3c(cc2c(=O)n1Cc1ccco1)OCO3)C(=O)NCCOC (centres undefined)	-4%	4.6	-0.9%	-8%	-3.4	-4%	/
CC(=O)c1ccc(NC(=O)C[n+]2ccc(N(C)C)cc2)cc1	3%	-0.3	-0.1%	19%	1.4	-9%[15.4 µM]	-0.1%
Cc1ccc(S(=O)(=O)/C=C2\NC(=O)CS2)cc1	-9%	1.3	-0.8%	-1%	-3.1	30%	-1.0%
O=C(O)/C=C/c1ccc(S(=O)(=O)Nc2cccnc2)cc1	-3%	-2.5	0.0%	19%	2.0	29%[15.4 µM]	0.7%
O=C1CCCC/C1=C\Nc1ccc(Cl)cn1	1%	?	-5.0%	?	-0.4	-33%[inhibitor]	?
Cc1ccc(S(=O)(=O)N2C(=O)CCC2C(=O)O/N=C(\N)c2cccc([N+](=O)[O-])c2)cc1 (centres undefined)	?	/	-1.4%	9%	?	?	0.4%
O=C(O)C(CCc1ccccc1)N1C(=O)c2ccccc2C1=O (centres undefined)	-11%	/	2.6%	/	-1.2	4%[15.4 µM]	2.2%
COCCNC(=O)/C(C#N)=C/c1cccc(/C=C(\C#N)C(=O)NCCOC)c1	-1%	?	-2.3%	20µM*	-11	6%[15.4 µM]	-0.5%
Cc1ccc(NC(=O)N2CCSc3ccccc32)cc1	-8%	-14	-3.8%	10%	2.1	-1%	2.0%
COc1ccc(CNC(=O)CSCc2c(F)cccc2Cl)cc1	9%	-0.4	1.7%	1%	-3.5	9%	1.5%
CN=C1N(C)C[C@@H]2[C@@H]3C(=O)N(C)C(=O)[C@@H]3[C@](C)(C(=O)OC)N12	4%	/	1.4%	/	0.5	/	0.8%
COc1ccc(CN(C)C(=O)Cn2cc(C)c(=O)[nH]c2=O)cc1OC	7%	/	0.9%	/	-2.4	/	-0.4%
Cc1cc(=O)[nH]c(-c2cccs2)n1	8%	2.1	-1.4%	8%	-2.8	7%	-0.1%
O=S(=O)(NCCc1ccccn1)c1ccc(OC(F)(F)F)cc1	-5%	/	-3.9%	3%	-5.0	-23%	2.4%
C=CCNC(=O)CN(c1cc(Cl)ccc1OC)S(=O)(=O)c1ccc(C)c([N+](=O)[O-])c1	-5%	-7.6	/	17%	-1.9	-4%[15.4 µM]	4.9%
CCOC(=O)C1CCN(C(=O)c2ccc3nc(-c4ccc(OC)cc4)c(-c4ccc(OC)cc4)nc3c2)CC1	?	/	4.2%	-8%	4.3	4%	-1.1%
O=C(CCNC(=O)c1ccc(Cl)cc1)NCc1ccccc1Cl	2%	/	-0.7%	/	-6.2	-4%[15.4 µM]	0.1%
CC(=O)Nc1ccc(NC(=O)CSC2=NCCS2)cc1	?	0.7	1.0%	0%	-2.1	-21%	-0.5%
Cc1cc2n(n1)SC(Nc1cccc3ccccc13)N2 (centres undefined)	2%	-3.7	7.4%	-12%	-1.5	?	1.7%
CCOC(=O)/C=c1\sc2n(c1=O)CCN=2	-9%	3.0	?	-19%	-1.4	?	2.2%[38.3 µM]
O=C(O)c1nn(CC(=O)N2CCCCCC2)c(=O)c2ccccc12	-3%	-1.7	28µM*	20%	-4.2	6%[15.4 µM]	1.8%
CCOC(=O)N1CCN(C(=O)Nc2ccc3nccnc3c2)CC1	-2%	0.7	-11%	29%	-0.5	25%	/
Cc1ccc(C(NC(=O)NC(C)c2ccccc2)C(Cl)(Cl)Cl)cc1F (centres undefined)	-25%	5.7	-3.0%	19%	0.0	20%	13%
C=CCNC(=S)NNC(=O)COc1c(Cl)cc(Cl)cc1Cl	-1%	0.6	-2.1%	18%	-3.0	-17%	0.9%
COc1ccc(-c2nnc(NC(=O)C3CCCO3)s2)cc1 (centres undefined)	5%	0.6	13µM*	9%	-3.2	7%	-1.7%
O=C(NN1C(=O)NC2(CCCCC2)C1=O)c1ccc(-c2ccc([N+](=O)[O-])cc2)o1	-2%	/	-2.6%	10%	3.9	-10%	4.1%
COc1cccc(C2C=C(c3ccc(OC)cc3OC)Nc3nnnn32)c1 (centres undefined)	-15%	2.3	-2.6%	-12%	-3.9	9%[15.4 µM]	6.5%
CCOC(=O)N(C)c1c(CC)nc2c(OCc3ccccc3OC)cccn12	/	/	0.7%	/	1.5	/	6.4%
O=C(OCc1nnc(-c2ccccc2)o1)c1cccc(-n2cnnn2)c1	2%	/	-1.0%	/	1.8	10%	5.3%
O=C(NCCN1CCN(c2cccc(Cl)c2)CC1)c1cccn2c(=O)c3ccccc3nc12	10%	/	-5.7%	/	-2.2	18%	0.5%
COc1ccc(S(=O)(=O)N2CCOCC2)cc1NC(=O)c1cccs1	?	/	2.6%	/	-0.6	?	7.7%
CC(=O)C1=C(C)NC2=C(C(=O)CC(C)(C)C2)C1C (centres undefined)	-6%	-0.3	/	3%	-4.0	?	-1.6%
COc1cc(OC)c(C2SCCS2)c(OC)c1	4%	1.2	-0.6%	12%	0.2	-16%	1.2%
Clc1ccc(N2CCN(c3cnc4ccccc4n3)CC2)cc1	33%	-2.3	4.5%	-5%	-4.6	17%	3.3%
CCOC(=O)c1cnc2c(OC)cccc2c1NCc1cccnc1	8%	0.3	4.2%	19%	-6.6	23%	2.2%
CCCOC(=S)Nc1ccccc1	12%	3.3	1.1%	15%	-4.6	-35%[inhibitor]	5.0%
Cc1ccc(C2(C)NC(=O)N(CC(=O)N(C)CC(=O)Nc3cccc(F)c3)C2=O)cc1 (centres undefined)	6%	/	-0.8%	/	-4.1	-58%[inhibitor]	0.1%
CC(C)Oc1ccc(C(=O)Nc2ccc(NC(=O)c3ccco3)c(Cl)c2)cc1	-6%	1.0	?	6%	0.7	?	6.1%

Other structures follow.
SMILES	gsp antagonist	Menin MLL FP FL	ClpP mod	Sfp PPTase inh	D2 agonist	gsp ag	PINK1 modulator
CCCn1c(SCC(=O)OCc2ccccc2)nc2c1c(=O)n(C)c(=O)n2C	-9%	3.0	3.3%	-13%	-1.6	?	5.5%[38.3 µM]
Clc1ccc(CNc2ncnc3[nH]ncc23)cc1Cl	16%	/	/	/	5.7	-25%	0.8%
N#Cc1ccc[n+](CC(=O)c2ccc(NC(=O)c3ccccc3)cc2)c1	11%	1.5	0.2%	12%	-1.0	?	-0.1%
CCc1cccc(NS(=O)(=O)c2c(C)nc3sc(CC)nn3c2=O)c1	-25%	-1.0	2.4%&-0.6%	-13%	-5.4	?	0.1%&0.6%
